miR-21 FLuc: raises the signal of a miR-21 reporter | 340,000 tested, under 10 active | HeLa miR-21 FLuc reporter, luciferase, 48 h | Potency, µM (doses to about 38.3 µM), without a hit: at the highest dose reporter change, positive = more light | AID 2288; active = well fitted rising curve with a large enough effect; inconclusive = small, poorly fitted or top-dose-only effect; inactive = no such curve, though single readings can be large or run the other way;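 further: % of control where 0% means no effect; miR-21 action dims this reporter so a rising signal means less miR-21 action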
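Luminescence from a firefly luciferase reporter carrying a miR-21 binding site downstream, stably expressed under a CMV promoter in HeLa cells that make miR-21 endogenously, reports miRNA modulation after 48 h compound exposure up to approximately 40uM final.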
Rango dissoc inh: inhibition of RanGTP-driven Rango-importin beta dissociation. O95149+P62826. AID 540253. 340,000 compounds, 0.071% hits. Potency, µM (top dose mostly 46.1 µM), without a hit: at the highest dose activity change, negative = inhibition. Biochemical FRET Rango-importin beta, RanGTP-induced dissociation; active means falling FRET ratio curve, often poorly fitted, with flat reads before Ran was added; inconclusive means other falling curves, or compound fluorescence or quenching; inactive means flat or rising ratio curve;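 further: potency means the concentration at half of the fitted maximal effect; % of control where 0% means no effect; nearly all actives have a fitted effect of over 45% in size; -100% = wells without RanGTP and RCC1; the record marks most hits as doubtful in a second field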
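Rango/importin beta premix (0.1/0.25 uM final), PBS + 1 mM DTT + 0.02% Tween-20 + 0.1% BSA; cpd 5 min RT; FRET pre-read; + RanGTP-RCC1 (0.6 uM Ran, 2 mM GTP, 0.2 uM RCC1); 45 min RT; FRET post-read, ex 430, em 486/530 nm.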
Rango complex inh: prevents formation of the Rango-importin beta complex | Potency, µM (series often up to 92.2 µM), without a hit: top-dose inhibition of complex formation | Q14974 | AID 540263 | Rango CFP/YFP FRET sensor + importin beta, 45 min | 340,000 compounds, 0.031% hits; active = rising FRET ratio curve, often small or poorly fitted; inconclusive = mostly compound fluorescence or quenching in the first reads; inactive = flat curves in all reads;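 further: potency means the concentration at half of the fitted maximal effect; 0% = DMSO wells and 100% = buffer wells lacking importin beta; nearly all actives have a fitted effect of over 15% in size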
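Inhibition scored from the CFP 486 nm/YFP 530 nm FRET ratio 45 min after adding 0.125 microM importin beta to 50 nM Rango biosensor preincubated 5 min with compound (room temperature, PBS with DTT, Tween-20, BSA). No-importin wells as positive control.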
GLA inh pH 4.5: inhibitors of human alpha-galactosidase A at pH 4.5 | AID 1467 | activity change, negative = inhibition, % at 105 µM | purified enzyme, 4-MU-alpha-Gal fluorescence, pH 4.5 | 230,000 tested, under 10 active; inconclusive = small, poorly fitted or top-dose-only inhibition, or a rising curve; inactive = flat fitted curve, though single readings scatter; no compound was filed as active;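 further: 0% = full activity with enzyme and -100% = basal without enzyme; dose as in the result columns while the protocol names 77 µM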
Target sequence (P06280 whole entry, looked up): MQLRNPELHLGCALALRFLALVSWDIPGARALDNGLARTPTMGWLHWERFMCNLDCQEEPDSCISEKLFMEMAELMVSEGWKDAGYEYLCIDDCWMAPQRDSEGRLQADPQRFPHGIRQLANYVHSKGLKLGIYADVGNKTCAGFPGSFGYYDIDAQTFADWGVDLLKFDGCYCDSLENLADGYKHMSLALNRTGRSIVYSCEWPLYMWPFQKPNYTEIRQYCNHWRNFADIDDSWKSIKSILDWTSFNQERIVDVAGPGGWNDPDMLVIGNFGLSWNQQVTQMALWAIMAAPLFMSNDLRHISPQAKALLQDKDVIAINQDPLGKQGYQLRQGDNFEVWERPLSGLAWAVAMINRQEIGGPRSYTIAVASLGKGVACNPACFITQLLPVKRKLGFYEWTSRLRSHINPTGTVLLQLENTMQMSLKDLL
Active calls of the source: *. Some of the compounds tested. The share of hits here may be higher or lower than overall.

Screening N#Cc1c(NC(=O)CSc2nnc(-c3ccco3)n2-c2ccccc2)sc2c1CCC2 returned miR-21 FLuc -6.3%, Rango dissoc inh -11.9%, Rango complex inh -0.1% and GLA inh pH 4.5 4.2.
Screening O=C(N/N=C/c1ccc[nH]1)c1ccc(COc2cccc3cccnc23)cc1 returned miR-21 FLuc inconclusive, Rango dissoc inh 2.8%, Rango complex inh -4.4% and GLA inh pH 4.5 -10.4.
`Cc1nc2ccccc2c(=O)[nH]1` gave miR-21 FLuc -1.6%, Rango dissoc inh 6.0%, Rango complex inh 0.3% and GLA inh pH 4.5 8.5.
O=C(CCn1c(=O)c2ccccc2n(CC(=O)NC2CCCC2)c1=O)NCc1ccco1 was read as miR-21 FLuc -4.1%, Rango dissoc inh -11.1%, Rango complex inh -0.2% and GLA inh pH 4.5 5.2.
For Cc1nnc2c(Oc3ccccc3)nc3ccccc3n12 the results were miR-21 FLuc 0.6%, Rango dissoc inh 22.0%, Rango complex inh 1.1% and GLA inh pH 4.5 -5.9.
For Clc1ccccc1-c1nc2ccccc2c2nncn12 the results were miR-21 FLuc -4.5%, Rango dissoc inh 1.9%, Rango complex inh -0.6% and GLA inh pH 4.5 2.7.
Screening C/C(=N\NC(=S)NCc1ccccc1)c1ccc(Cl)s1 returned miR-21 FLuc -2.3%, Rango dissoc inh 0.0%, Rango complex inh -1.3% and GLA inh pH 4.5 4.7.
`COc1cccc(NC(=O)c2cc(CN3C(=O)c4ccccc4C3=O)ccc2OC)c1` gave miR-21 FLuc -2.9%, Rango dissoc inh -2.9%, Rango complex inh -5.4% and GLA inh pH 4.5 -1.2.
Screening CCN(C(=O)COC(=O)CSc1cc(C)c2ccccc2n1)c1ccccc1 returned Rango dissoc inh -0.8% and Rango complex inh -1.6%.
Screening COc1ccc(C(=O)C(OC(=O)CNC(=O)c2ccco2)c2ccccc2)cc1 (stereo unspecified) returned miR-21 FLuc -11.1%, Rango dissoc inh -14.1%, Rango complex inh 1.7% and GLA inh pH 4.5 11.7.
`Cc1c(NC(=O)/C(C#N)=C/c2ccc(-c3ccc(Cl)cc3)o2)c(=O)n(-c2ccccc2)n1C` gave miR-21 FLuc -1.6%, Rango dissoc inh -27.8%, Rango complex inh -3.0% and GLA inh pH 4.5 -21.6.
For COc1ccccc1C1OCC(C)([N+](=O)[O-])CO1 (stereo unspecified) the results were Rango dissoc inh -1.1% and Rango complex inh 2.1%.
COc1cc(OC)cc(C(=O)NNC(=O)c2cc(=O)[nH]c3ccccc23)c1 was read as Rango dissoc inh -8.1% and Rango complex inh -0.3%.
`NC(=O)CC(NC(=O)Cc1cccc2ccccc12)c1ccc(NC2CCC2)c([N+](=O)[O-])c1` (stereo unspecified) gave miR-21 FLuc 1.1%, Rango dissoc inh -12.5%, Rango complex inh -0.3% and GLA inh pH 4.5 5.3.
Screening CCOC(=O)C(NC(C)=O)(Nc1ccc(S(=O)(=O)Nc2cc(C)nc(C)n2)cc1)C(F)(F)F (stereo unspecified) returned miR-21 FLuc -2.0%, Rango dissoc inh -2.3%, Rango complex inh -2.0% and GLA inh pH 4.5 -4.4.

Entries shown so far with two or more sulfur atoms, in the order listed:
Screening N#Cc1c(NC(=O)CSc2nnc(-c3ccco3)n2-c2ccccc2)sc2c1CCC2 returned miR-21 FLuc -6.3%, Rango dissoc inh -11.9%, Rango complex inh -0.1% and GLA inh pH 4.5 4.2.
Screening C/C(=N\NC(=S)NCc1ccccc1)c1ccc(Cl)s1 returned miR-21 FLuc -2.3%, Rango dissoc inh 0.0%, Rango complex inh -1.3% and GLA inh pH 4.5 4.7.

Other records follow:
For COc1ccc(NC(=O)C2OC3OC(C)(C)OC3C3OC(C)(C)OC23)cc1 (stereo unspecified) the results were miR-21 FLuc -2.2%, Rango dissoc inh 20.1%, Rango complex inh 8.5% and GLA inh pH 4.5 5.6.
`COc1ccc(C2CC(=O)c3c(O)cc(O)cc3O2)cc1O` (stereo unspecified) gave Rango dissoc inh 11.5%, Rango complex inh 1.3% and GLA inh pH 4.5 -0.5.
`NC(=O)c1nsc(C(=O)N(CC(=O)NCc2ccc3c(c2)OCO3)C2CCCCC2)c1N` gave miR-21 FLuc -14.2%, Rango dissoc inh -1.5%, Rango complex inh -5.5% and GLA inh pH 4.5 -7.4.
Screening CCOC(=O)Cc1csc(NC(=O)CCCc2ccccc2)n1 returned miR-21 FLuc -5.3%, Rango dissoc inh -2.5% and Rango complex inh 0.4%.
For COC(=O)c1ccccc1C(=O)N(c1ccccc1)c1ccccc1 the results were Rango dissoc inh 2.3% and Rango complex inh 0.9%.
Screening COC(=O)CSc1nnc(-c2ccco2)n1-c1ccc(C)cc1 returned miR-21 FLuc -7.7%, Rango dissoc inh 26.1%, Rango complex inh 1.6% and GLA inh pH 4.5 9.7.
Cc1cc(C)n2c3c(c(C#N)c2n1)CC(C)(C)OC3 was read as miR-21 FLuc -23.8%, Rango dissoc inh -20.3%, Rango complex inh inconclusive and GLA inh pH 4.5 -0.3.
O=C(CN1CCN(c2ccccc2)CC1)Nc1nccs1 was read as miR-21 FLuc -0.6%, Rango dissoc inh -7.3%, Rango complex inh -1.4% and GLA inh pH 4.5 0.3.
Screening O=C(NCc1ccc(Cl)cc1)c1cc2c(nc3sccn32)s1 returned miR-21 FLuc -13.4%, Rango dissoc inh -2.9%, Rango complex inh -1.7% and GLA inh pH 4.5 8.7.
`COCCNC(=O)CSc1nnc(-c2ccccc2F)n1Cc1ccccc1` gave miR-21 FLuc -3.2%, Rango dissoc inh -4.8%, Rango complex inh 0.8% and GLA inh pH 4.5 5.2.
COc1cccc(-c2nnc(NC(=O)C3CCCCC3)o2)c1 was read as miR-21 FLuc -6.9%, Rango dissoc inh 2.7%, Rango complex inh -1.0% and GLA inh pH 4.5 -4.1.
`O=c1oc2ccccc2c(O)c1Sc1ccc(Cl)cc1` gave Rango dissoc inh 10.9% and Rango complex inh 2.4%.
`Nc1ncnc2c1ncn2C1CCC(CO)C(O)C1` (stereo unspecified) gave miR-21 FLuc -5.4%, Rango dissoc inh -18.7%, Rango complex inh 4.2% and GLA inh pH 4.5 4.8.
For Cc1ccc(OCc2nnc(SCC(=O)N3c4ccccc4Sc4ccc(Cl)cc43)o2)cc1 the results were miR-21 FLuc -5.3%, Rango dissoc inh 4.6%, Rango complex inh -3.1% and GLA inh pH 4.5 2.5.
For COc1cccc(C2C(C(=O)/C=C/c3ccco3)=C(O)C(=O)N2CCN2CCOCC2)c1 (stereo unspecified) the results were miR-21 FLuc -0.9%, Rango dissoc inh inconclusive, Rango complex inh inconclusive and GLA inh pH 4.5 -0.4.
O=C(CSc1nc(-c2ccco2)cc(C(F)(F)F)n1)Nc1ccc2c(c1)OCO2 was read as miR-21 FLuc -2.1%, Rango dissoc inh 18.6%, Rango complex inh inconclusive and GLA inh pH 4.5 2.2.
Screening Cc1sc2nc3c(SC(C)C(=O)O)cc(C(=O)c4ccccc4O)cn3c(=O)c2c1C (stereo unspecified) returned miR-21 FLuc -1.5%, Rango dissoc inh inconclusive, Rango complex inh inconclusive and GLA inh pH 4.5 -17.3.
`COc1ccc(NS(=O)(=O)c2ccc(OC)c(OC)c2)cc1OC` gave miR-21 FLuc -0.7%, Rango dissoc inh 0.4%, Rango complex inh -1.6% and GLA inh pH 4.5 3.7.
COc1ccc(Cl)cc1NC(=O)C1CC(=O)N(c2ccc(F)cc2)C1 (stereo unspecified) was read as miR-21 FLuc -11.3%, Rango dissoc inh -6.7%, Rango complex inh -0.5% and GLA inh pH 4.5 -10.6.
For Cc1ccc(/C=C/C(=O)OCC(=O)Nc2cccnc2Cl)cc1 the results were Rango dissoc inh -0.3% and Rango complex inh 3.6%.
For O=C1CN(S(=O)(=O)c2ccc([N+](=O)[O-])cc2)CC(=O)N1 the results were miR-21 FLuc 0.0%, Rango dissoc inh 2.5% and Rango complex inh 2.2%.
For Cc1ccc(SCC(=O)NNC(=O)c2ccc(S(C)(=O)=O)cc2)cc1 the results were miR-21 FLuc -2.6%, Rango dissoc inh 11.3% and Rango complex inh -0.5%.
For Clc1ccc(-c2nc3ncccn3c2Nc2ccc3c(c2)OCO3)cc1 the results were miR-21 FLuc -3.3%, Rango dissoc inh 1.5%, Rango complex inh -2.4% and GLA inh pH 4.5 -10.5.
Screening Clc1ccccc1Nc1ncnc2c1nnn2Cc1ccccc1 returned miR-21 FLuc -16.4%, Rango dissoc inh 13.1%, Rango complex inh 2.0% and GLA inh pH 4.5 -11.7.
Screening C=CCc1ccccc1OCC(O)CN1C(=O)c2ccccc2C1=O (stereo unspecified) returned miR-21 FLuc 0.5%, Rango dissoc inh -2.3% and Rango complex inh inconclusive.
`Oc1ccc(CNc2ccc(F)cc2)c2cccnc12` gave miR-21 FLuc 25.8%, Rango dissoc inh -0.4%, Rango complex inh -0.3% and GLA inh pH 4.5 -8.3.
Screening CC(CN1CCC(n2nccc2NC(=O)C2CCCC2)CC1)c1ccccc1 (stereo unspecified) returned miR-21 FLuc -3.4%, Rango dissoc inh -0.1% and Rango complex inh -0.7%.
Screening CCOc1ccc(C(C)=O)cc1CSc1nnc(N)s1 returned miR-21 FLuc -0.1%, Rango dissoc inh -0.1%, Rango complex inh -0.9% and GLA inh pH 4.5 7.4.
Screening CC1(C)CC(=O)C2=C(C1)Nc1ccccc1N(C(=O)C1CC1)C2c1ccco1 (stereo unspecified) returned miR-21 FLuc -0.1%, Rango dissoc inh 5.5%, Rango complex inh 2.0% and GLA inh pH 4.5 1.4.
`C=C(C)CSc1[nH]c(=O)cc(C)c1C#N` gave miR-21 FLuc 0.3%, Rango dissoc inh 3.4%, Rango complex inh -3.9% and GLA inh pH 4.5 7.0.
For Cc1cc(C)c(NC(=O)CSc2nc3ccc(N4C(=O)c5ccccc5C4=O)cc3s2)c(C)c1 the results were miR-21 FLuc -0.5%, Rango dissoc inh -6.0%, Rango complex inh -0.1% and GLA inh pH 4.5 1.4.
For O=C(Nc1ccc(F)cc1)N1CCN2C(=O)c3ccccc3C12c1ccccc1 (stereo unspecified) the results were miR-21 FLuc 12.1%, Rango dissoc inh 5.0%, Rango complex inh 0.6% and GLA inh pH 4.5 -12.6.
`CCOC(=O)C1(CCCc2ccccc2)CCN(C(=O)CCCn2cncn2)CC1` gave miR-21 FLuc -12.1%, Rango dissoc inh -2.4%, Rango complex inh 4.3% and GLA inh pH 4.5 -0.9.
For COc1ccccc1C(C)NC(=O)CCNC(=O)c1ccc(Cl)cc1 (stereo unspecified) the results were Rango dissoc inh -10.9% and Rango complex inh 1.6%.
Cc1ccc(OC(=O)c2cccc(C(=O)Oc3ccc(C)cn3)n2)nc1 was read as miR-21 FLuc -4.2% and GLA inh pH 4.5 -1.6.
For CC(=O)c1ccc(NC(=S)NC2CCCC(C)C2C)cc1 (stereo unspecified) the results were miR-21 FLuc -31.4%, Rango dissoc inh 5.3%, Rango complex inh 0.1% and GLA inh pH 4.5 -0.2.
CC(Sc1nc(-c2ccc(F)cc2)cs1)C(=O)N1c2ccccc2CC1C (stereo unspecified) was read as miR-21 FLuc 10.8%, Rango dissoc inh 2.9%, Rango complex inh -0.2% and GLA inh pH 4.5 -6.7.
For COc1cccc(-c2cc(C(=O)NCc3ccco3)no2)c1 the results were miR-21 FLuc -51.1%, Rango dissoc inh 1.2%, Rango complex inh -0.3% and GLA inh pH 4.5 1.3.
`O=C(CO)N/N=C/c1c2ccccc2cc2ccccc12` gave miR-21 FLuc 3.4%, Rango dissoc inh -12.4%, Rango complex inh inconclusive and GLA inh pH 4.5 6.2.
Screening COc1ccc(NS(=O)(=O)c2ccc(N3CCN(CCO)CC3)c([N+](=O)[O-])c2)cc1 returned miR-21 FLuc 17.1%, Rango dissoc inh 3.2% and Rango complex inh -3.5%.
For COc1ccc(OC)c(Cc2nnc(CCC(=O)NC3CCCCC3)o2)c1 the results were miR-21 FLuc -20.9%, Rango dissoc inh 13.2%, Rango complex inh -0.8% and GLA inh pH 4.5 7.1.
`CCOc1ccc(CC(=O)Nc2c(C(N)=O)oc3ccccc23)cc1OCC` gave miR-21 FLuc -4.3%, Rango dissoc inh 8.4%, Rango complex inh -1.3% and GLA inh pH 4.5 1.4.
For CN(c1ccccc1)S(=O)(=O)c1ccc(C(=O)N2CCCC2)cc1 the results were Rango dissoc inh -14.9% and Rango complex inh -1.3%.
